Screens deposited in PubChem BioAssay by National Center for Advancing Translational Sciences (NCATS).
D2 agonist = agonists of human D2 dopamine receptor (beta-arrestin); P14416; DiscoveRx PathHunter D2 beta-arrestin, luminescence, 90 min; 100% = 57 uM dopamine signal; activation, % (concentration not given with the values); 0.084% of 360,000 active; AID 624465; in the data active = activation above about 40%; inconclusive = about 15% to 40%; inactive = below about 15%; note: compound concentration not given in the record; the text of the record calls up to 30% inactive
Target sequence (P14416 whole entry, looked up): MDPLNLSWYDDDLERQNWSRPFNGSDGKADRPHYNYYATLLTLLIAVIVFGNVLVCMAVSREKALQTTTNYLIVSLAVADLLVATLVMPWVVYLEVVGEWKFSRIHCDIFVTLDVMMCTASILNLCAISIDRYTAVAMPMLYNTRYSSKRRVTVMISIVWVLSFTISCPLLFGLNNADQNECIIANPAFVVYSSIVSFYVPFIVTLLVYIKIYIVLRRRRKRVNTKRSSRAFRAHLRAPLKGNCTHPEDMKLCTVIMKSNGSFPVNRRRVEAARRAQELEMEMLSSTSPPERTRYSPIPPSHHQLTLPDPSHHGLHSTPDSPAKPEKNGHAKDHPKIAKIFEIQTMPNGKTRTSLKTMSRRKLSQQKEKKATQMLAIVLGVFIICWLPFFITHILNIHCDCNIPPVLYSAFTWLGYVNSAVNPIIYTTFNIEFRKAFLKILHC
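DiscoveRx PathHunter D2 beta-arrestin cells (2,100/well) attached overnight, then compound-stimulated 90 min at 37 C in HBSS/10 mM HEPES/0.1% Tween-20 buffer; beta-galactosidase complementation read by luminescence after 1 h at ambient temperature. Dopamine 57 uM final (EC100) as control.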
D2 potentiator = potentiates the human D2 dopamine receptor allosterically | DiscoveRx D2 beta-arrestin cells, luminescence, 90 min; 100% = 57 uM dopamine signal | potentiation, % (test concentration not listed) | 0.23% of 360,000 active | AID 624464; active = potentiation of 50% or more; inconclusive = 30% to 50%; inactive = 30% or less;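 note: compound concentration not given in the record; tested on top of an EC20 dose of dopamine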
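PathHunter D2 cells, attached overnight at 37 deg C, received compound in DMSO plus dopamine at EC20 (50 nM final) for 90 min at 37 deg C. Beta-arrestin recruitment was read as luminescence after 1 h with detection reagent at ambient temperature.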
PINK1 modulator = modulators of PINK1 expression; PINK1 immunofluorescence, high-content cytometry, 24 h; Potency, µM (titrated, usually from 76.6 µM), for inactives: at the highest dose activation (PINK1 increase), most hits filed as activators; 0.2% of 410,000 active; AID 624263; active = well fitted activation curve with a large enough effect; inconclusive = small, poorly fitted or top-dose-only effect; inactive = flat fitted curve, though single readings scatter; cell line not stated here;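 note: potency is the fitted concentration of half-maximal effect; % of control where 0% means no effect; nearly all actives have a fitted effect of over 65% in size; a mitochondrial uncoupler was the plate control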
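Decision-based qHTS: stable cells, 24 h exposure to five compound concentrations, CCCP as control. Fixed cells stained for PINK1 plus nuclear, mitochondrial and cell markers, cytometer read.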
Six1-Eya2 inh = Six1/Eya2 interaction inhibition | activity change, % (concentration not given with the values) | 0.56% of 360,000 active | AlphaScreen GST-Six1/His-Eya2 binding, biochemical; stronger effect = lower value; control for the full effect not named in the record | Q15475+O00167; in the data active = activity change below about -65%; inconclusive = about -30% to -65%; inactive = above about -30%; note: % is set by controls: 0 for no effect and ±100 for the full control effect
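AlphaScreen with GST-Six1 and His-Eya2 (5X mix: 250 nM and 500 nM), glutathione donor and nickel acceptor beads; buffer 50 mM Tris pH 8.0, 300 mM NaCl, 1 mM TCEP; 1 h at 37 C in the dark.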
TRPML1 agonist = human mucolipin-1 channel agonism. Q9GZU1. 0.12% of 410,000 active. TRPML1-expressing cells, Ca2+ dye fluorescence, FDSS; host cell line not named in the record; reference of the full effect not given here. activation, % (concentration not given with the values); in the data active = activation above about 50%; inconclusive = about 30% to 50%; inactive = below about 30%; note: 0% is about no effect; the text of the record puts the active cut at 80%
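Cells: TRPML1-DL, 1X Tet inducer, ~16 h at 37 degrees C/5% CO2. Dye: ABD Ca8 no-wash + quencher, 45-90 min RT. Read: 10 s baseline, compound add, 110 s agonist phase; 54-4 EC80 (4uM final), 110 s antagonist phase.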
TRPML1 inh = inhibitors of human TRPML1 channel. 0.02% of 390,000 active. Q9GZU1. activity change, negative = inhibition, % (concentration not given with the values). TRPML1-inducible cells, Ca2+ dye fluorescence, FDSS; stronger effect = lower value; inhibition of EC80 agonist-evoked calcium signal; in the data active means activity change below about -50%; inconclusive means about -30% to -50%; inactive means above about -30%;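 note: stimulus is agonist 54-4 at its EC80 concentration; % is set by controls: 0 for no effect and ±100 for the full control effect; compound concentration not given in the record; the text of the record puts the active cut at -80%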
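TRPML1-DL cells, Tet-induced overnight (~16 h, 37 °C) at 1,500 cells/well, were loaded with Ca8 no-wash dye plus quencher for 45-90 min at room temperature. Compounds were pinned during FDSS kinetic reading; agonist 54-4 at EC80 (4 uM final) then added.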
* marks the source's active call; other numbers are inactive results; ? = inconclusive; nt = not tested or not shown; & = joins results of further samples; [ ] = another dose, or the depositor's remark.

SMILES	D2 agonist	D2 potentiator	PINK1 modulator	Six1-Eya2 inh	TRPML1 agonist	TRPML1 inh
CCC1(Cc2ccccc2)C(=O)NC(=S)N(C)C1=O (stereo not given)	1.0	-12	-2.4%	0	1.5	-13
COC(=O)C1=C(c2ccc(F)cc2OCc2ccccc2)C[C@@H]2CC[C@H]1N2C(=O)NCCCOC(C)C	-1.2	-19	-0.7%	-7	1.2	37
COC(=O)c1cccc(N=Cc2c(O)n(Cc3ccc(F)cc3)c(=O)[nH]c2=O)c1	-4.1	-6	4.3%	12	-0.5	-6
Cn1c(O)c(Cc2cccc(Cl)c2Cl)c(=O)n(C)c1=O	0.3	9	1.2%	4	nt	nt
Cc1cccc(-n2c(/C=C/c3ccccn3)nc3ccccc3c2=O)c1	3.0	4	0.8%	-1	1.4	4
O=S1(=O)CC2(N3CCOCC3)CCCCC21 (stereo not given)	0.7	-5	5.4%[38.3 µM]	-2	0.4	-10
CC(C)(C)NCC(O)c1cc(Cl)c(N)c(Cl)c1 (stereo not given)	-4.0	-9	1.9%	2	-0.2	1
COC1=CC=C2[C@H]3Cc4ccc(OC)c5c4[C@@]2(CCN3C)C1O5 (stereo not given in full)	3.6	-8	-0.4%	-1	-0.5	-4
Cc1ncc(CN2CCCC(C(=O)c3sccc3C)C2)s1 (stereo not given)	-3.0	-28	1.8%	-1	-0.6	12
COc1ccc(SCC2CN(C)CCC2c2ccc(F)cc2)cc1 (stereo not given)	-3.9	-19	8.9%	-20	0.6	-10
Cc1ccc(/C=C2/C(=O)NC(=O)N(C)C2=O)cc1	0.1	-8	-0.2%	15	0.7	23
Cc1cccc(N2CCc3c2nc2ccccc2c3N)c1	-6.2&5.2	-38&-11	?	-1&-15	0.0&-0.3	-11&19
CC(=O)Nc1ccccc1C(=O)OCc1cccc(F)c1	-2.3	-1	3.0%	16	1.3	-20
COc1ccc(Cn2c(O)c(C=Nc3c(C)n(C)n(-c4ccccc4)c3=O)c(=O)[nH]c2=O)cc1	-0.5	1	1.0%	-7	0.4	-8
Cc1nn(-c2ccccc2)c2c1CC1(C(=O)N(C)C(=O)N(C)C1=O)C1CCCCN21 (stereo not given)	-1.6	-13	0.1%	3	1.5	14
CN1CCN(C(=O)COc2ccc(C(C)(C)C)cc2Br)CC1	-2.8	-35	-0.4%	-2	1.0	1
CNC(=S)N(C)CCc1cc2c(c(OC)c1/C=C1/C(=O)NC(=O)N(C)C1=O)OCO2	-2.2	-7	3.4%	2	1.1	3
CC1CCCC(C)N1/N=C/c1c[nH]c2ccc(Br)cc12 (stereo not given)	2.0	-21	-1.0%	-9	1.7	0
Nc1ncc([N+](=O)[O-])s1	2.4	-6	-0.2%	-4	-0.5	5
O=C(N/N=C/c1c(O)n(CCc2ccccc2)c(=O)[nH]c1=O)c1ccccc1	-5.3	-3	-1.0%	-20	-0.7	-22
CCCNS(=O)(=O)c1ccc(OCC(=O)N2CCN(Cc3ccccc3)CC2)cc1	-1.9	-7	-1.9%	23	-0.9	-6
CC1CCN(CC(=O)c2ccccc2Cl)CC1	-19	-33	-2.7%	12	0.3	21
O=C(NC(=S)N1C[C@H]2C[C@H](C1)c1cccc(=O)n1C2)c1ccc(Cl)cc1Cl	-4.0	-18	-0.9%	7	nt	nt
O=C1N[C@H](Cc2ccccc2)C(=O)N2[C@@H]3[C@H](C[C@@H]12)c1ccccc1N3OOSc1ccccc1	-3.1	-14	-0.4%	8	0.6	-6
Cc1ccnc(NS(=O)(=O)c2ccc(N=Cc3c(O)n(C)c(=O)n(C)c3=O)cc2)n1	3.7	0	0.3%	-1	0.4	9
C/C(Cl)=C/CC1(CN2CCCC2=O)C(=O)NC(=O)NC1=O	-1.6	11	0.8%	-1	1.0	28
O=c1[nH]c(=O)n(CCC2=CCCCC2)c(O)c1/C=N/Nc1cccc2ccccc12	12	-1	1.2%	-8	nt	nt
Cc1ccc(-n2c(C)cc(/C=C3\C(=O)NC(=O)N(C)C3=O)c2C)cc1C	2.1	-4	5.7%	-5	2.8	13
CCN(CC)P(=O)(NC(=O)c1cccn1C)N(CC)CC	-6.6	-3	-0.7%	-1	0.8	-8
CCCCCCn1c(=O)c(C(=O)Nc2cnccn2)c(O)c2ccccc21	0.0	-2	6.5%	6	-0.1	-6
COc1ccc(C=C2C(=O)N(C)C(=O)N(C)C2=O)cc1CSc1ccccn1	-0.9	-23	4.5%	14	1.4	33
O=C(COc1ccccc1)c1cn(Cc2ccccc2)c2ccccc12	-1.7	-11	2.8%	35	-0.3	1
COC(=O)C1=C(c2cccc(OC)c2OC)C[C@@H]2CC[C@H]1N2C(=O)NCc1ccc(C(F)(F)F)cc1	-0.2	-5	3.5%	0	1.3	-18
Cc1ccc(C(=O)n2cc(CCN3CCS(=O)(=O)CC3)c3ccccc32)cc1	3.2	4	0.8%	-1	-0.6	41
CN(C(=O)CNC(=O)OCc1ccccc1)c1ccc(Br)cc1C(=O)c1ccccc1Cl	0.3	-12	-0.7%	-19	0.5	25
O=P(Oc1ccccc1)(Oc1ccccc1)C(Nc1ccccc1)c1ccccc1 (stereo not given)	-2.0	-13	1.1%	8	0.6	21

By substructure, those above with a carbonyl joined to an NH by a bond outside any ring
SMILES	D2 agonist	D2 potentiator	PINK1 modulator	Six1-Eya2 inh	TRPML1 agonist	TRPML1 inh
COC(=O)C1=C(c2ccc(F)cc2OCc2ccccc2)C[C@@H]2CC[C@H]1N2C(=O)NCCCOC(C)C	-1.2	-19	-0.7%	-7	1.2	37
CC(=O)Nc1ccccc1C(=O)OCc1cccc(F)c1	-2.3	-1	3.0%	16	1.3	-20
O=C(N/N=C/c1c(O)n(CCc2ccccc2)c(=O)[nH]c1=O)c1ccccc1	-5.3	-3	-1.0%	-20	-0.7	-22
O=C(NC(=S)N1C[C@H]2C[C@H](C1)c1cccc(=O)n1C2)c1ccc(Cl)cc1Cl	-4.0	-18	-0.9%	7	nt	nt
CCN(CC)P(=O)(NC(=O)c1cccn1C)N(CC)CC	-6.6	-3	-0.7%	-1	0.8	-8
CCCCCCn1c(=O)c(C(=O)Nc2cnccn2)c(O)c2ccccc21	0.0	-2	6.5%	6	-0.1	-6
COC(=O)C1=C(c2cccc(OC)c2OC)C[C@@H]2CC[C@H]1N2C(=O)NCc1ccc(C(F)(F)F)cc1	-0.2	-5	3.5%	0	1.3	-18
CN(C(=O)CNC(=O)OCc1ccccc1)c1ccc(Br)cc1C(=O)c1ccccc1Cl	0.3	-12	-0.7%	-19	0.5	25

An excerpt. The share of hits here may be higher or lower than overall.
